# ClpP mod – qHTS Assay for Activators of ClpP | Potency, µM (titrated, usually from 57.5 µM), for the others: at the top dose activity change, negative = active | purified B. subtilis ClpP, FRET peptide cleavage, 20 min | AID 651965, 2013 | ATP-dependent Clp protease proteolytic subunit (Bacillus subtilis (strain 168)), P80244 | 1.9% of 340,000 active; active = well fitted falling curve with a large enough effect; inconclusive = small, poorly fitted or top-dose-only effect; inactive = no such curve, though single readings can be large or run the other way; further: potency means the concentration at half of the fitted maximal effect; the source files actives as falling curves though it sought activators and does not explain the sign; nearly all actives have a fitted effect of over 65% in size; many hits overshoot -100%
# Target sequence (P80244 whole entry, looked up): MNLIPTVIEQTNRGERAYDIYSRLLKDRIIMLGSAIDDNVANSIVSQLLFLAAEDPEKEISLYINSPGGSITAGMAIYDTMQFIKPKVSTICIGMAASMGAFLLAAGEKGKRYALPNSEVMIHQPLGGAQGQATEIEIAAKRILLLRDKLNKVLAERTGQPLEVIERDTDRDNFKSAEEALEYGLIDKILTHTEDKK
#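 Buffer: 100 mM Tris/HCl pH8, 100 mM KCl, 0.05% low protease BSA, 2.5% glycerol, 0.01% Tween-20. ClpP 10 microg/mL final; 20 min RT; delta FRET normalized to ADEP and DMSO controls.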
# TRPML1 agonist – agonists of human TRPML1 channel; Q9GZU1; TRPML1-expressing cells, Ca2+ dye fluorescence, FDSS; host cell line not named in the record; reference of the full effect not given here; activation, % (no concentration beside the values); 0.12% of 410,000 active; AID 624414; in the data active = activation above about 50%; inconclusive = about 30% to 50%; inactive = below about 30%; further: 0% is about no effect; the text of the record puts the active cut at 80%
#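 TRPML1-DL cells, Tet-induced overnight (~16 h, 37 degrees C), loaded 45-90 min at room temperature with Ca8 no-wash calcium dye plus quencher. FDSS fluorescence: 10 s baseline, compound pin-transfer, 110 s agonist read, then EC80 54-4 (4uM final) and 110 s antagonist read.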
# PINK1 expr mod – modulators of PINK1 expression; PINK1 immunofluorescence, high-content cytometry, 24 h; Potency, µM (titrated, usually from 76.6 µM), for inactives: at the top dose activation (PINK1 increase), most hits filed as activators; 0.2% of 410,000 active; active = well fitted activation curve with a large enough effect; inconclusive = small, poorly fitted or top-dose-only effect; inactive = flat fitted curve, though single readings scatter; cell line not stated here;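 further: potency means the concentration at half of the fitted maximal effect; % of control where 0% means no effect; nearly all actives have a fitted effect of over 65% in size; a mitochondrial uncoupler was the plate control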
#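 Stable cell line, 250 cells/well, 12 h attachment; compounds pinned at 5 concentrations, 24 h; CCCP control. Fixed with nuclear dye, primary antibodies 12 h at 10 degrees C, secondary plus cell stain; laser-scanning cytometer read.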
# Menin-MLL FL inh – inhibitors of human menin-MLL interaction, wild-type MLL peptide; 290,000 tested, under 10 active; FP activity change, % at 61.4 µM; Fluorescence polarization, fluorescein-MLL peptide displacement from menin; inconclusive = falling polarisation curve, or a change in total fluorescence; inactive = total fluorescence flat and polarisation flat or rising; no compound was filed as active; the % refers to the polarisation; negative = inhibition;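 further: % of control where 0% means no effect; inhibitors lower the polarisation; unlabelled MLL peptide was the positive control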
# TRPV1 potentiator – potentiators of human vanilloid receptor 1 (TRPV1); potentiation, % at 8.33 µM; Q8NER1; 0.02% of 320,000 active; TRPV1-expressing cells, Fluo-8 calcium influx, capsaicin EC20 potentiation; host cell line not named in the record; control for the full effect not named in the record; active means potentiation above 80%; inconclusive means 30% to 80%; inactive means below 30%; further: 0% is about no effect
# Target sequence (Q8NER1 whole entry, looked up): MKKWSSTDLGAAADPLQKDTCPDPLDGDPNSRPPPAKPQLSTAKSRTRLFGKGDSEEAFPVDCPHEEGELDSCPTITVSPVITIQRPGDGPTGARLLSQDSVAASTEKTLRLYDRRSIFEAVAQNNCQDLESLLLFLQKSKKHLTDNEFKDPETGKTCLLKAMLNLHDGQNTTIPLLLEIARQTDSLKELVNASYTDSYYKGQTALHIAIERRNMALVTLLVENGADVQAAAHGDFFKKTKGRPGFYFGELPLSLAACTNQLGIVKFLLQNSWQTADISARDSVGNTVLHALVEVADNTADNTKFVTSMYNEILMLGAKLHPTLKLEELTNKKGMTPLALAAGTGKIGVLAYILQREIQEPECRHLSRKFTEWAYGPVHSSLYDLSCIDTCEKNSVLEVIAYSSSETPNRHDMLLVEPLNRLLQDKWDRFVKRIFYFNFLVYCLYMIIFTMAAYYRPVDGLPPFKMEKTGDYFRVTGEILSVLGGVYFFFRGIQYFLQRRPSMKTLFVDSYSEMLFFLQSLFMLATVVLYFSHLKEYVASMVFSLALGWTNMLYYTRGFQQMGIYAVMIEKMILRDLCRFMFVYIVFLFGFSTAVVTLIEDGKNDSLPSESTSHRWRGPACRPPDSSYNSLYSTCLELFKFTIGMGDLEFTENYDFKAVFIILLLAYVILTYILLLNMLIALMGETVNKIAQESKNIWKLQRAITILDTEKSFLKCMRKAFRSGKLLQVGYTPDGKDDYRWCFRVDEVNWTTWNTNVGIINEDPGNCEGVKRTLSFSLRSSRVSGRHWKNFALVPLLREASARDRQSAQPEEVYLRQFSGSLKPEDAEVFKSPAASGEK
#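 Fluo-8 calcium influx in TRPV1-expressing cells, kinetic read (ex 480/em 520 nm). Compound added and read 3 min for agonist activity, followed by capsaicin at EC20 final and 2 min further read for enhancement.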
# TRPML1 blocker – human mucolipin-1 channel inhibition; Q9GZU1; TRPML1-inducible cells, Ca2+ dye fluorescence, FDSS; hits give low values; inhibition of EC80 agonist-evoked calcium signal; activity change, negative = inhibition, % (no concentration beside the values); 0.02% of 390,000 active; in the data active means activity change below about -50%; inconclusive means about -30% to -50%; inactive means above about -30%;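 further: stimulus is agonist 54-4 at its EC80 concentration; on the % scale 0 is the no-effect control and ±100 the full control effect; compound concentration not given in the record; the text of the record puts the active cut at -80%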
#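 Calcium fluorescence in TRPML1-DL cells induced overnight with Tet: a 110 s read after compound pin addition, then a 110 s antagonist read after challenge with 54-4 at 4 uM final (EC80).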
# Sfp inh – inhibitors of Bacillus subtilis Sfp phosphopantetheinyl transferase | Biochemical Sfp PPTase activity, qHTS | Potency, µM, inactives show max response, negative = inhibition, actives largely listed as inhibitors | 3.5% of 310,000 active; active means well fitted inhibition curve with a large enough effect; inconclusive means small, poorly fitted or top-dose-only effect, or another doubt; inactive means no such curve, though single readings can be large or run the other way;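 further: the enzyme is Sfp with the accession as filed and its product quenches rhodamine fluorescence; potency means the concentration at half of the fitted maximal effect; 0% = enzyme reaction without inhibitor and -100% = no enzyme wells; top concentration of the series not given in the record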
#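 With Hepes-Na pH 7.6 buffer containing 10 mM MgCl2, Sfp (15 nM) modified BHQ-2-YbbR (12.5 uM) using rhodamine-CoA (5 uM). Two reads 30 minutes apart at 525/598 nm yielded each well's rate.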
# * marks the source's active call; other numbers are inactive results; ? = inconclusive; · = no result given; & = joins results of further samples; [ ] = dose if it differs, or a comment.
molecule,ClpP mod,TRPML1 agonist,PINK1 expr mod,Menin-MLL FL inh,TRPV1 potentiator,TRPML1 blocker,Sfp inh
O=C(COC(=O)c1cccc(F)c1)Nc1ccc2c(c1)OCCO2,-0.2%,0.5,0.3%,·,-18,3,·
O=C(C1CCCN(S(=O)(=O)c2ccccc2[N+](=O)[O-])C1)N1CCN(c2ccccc2)CC1 (stereo not drawn),-0.2%,0.0,5.9%,2.3,-3,-1,-5%
O=c1c2ccccc2c(/C=N/c2n[nH]c(CCCO)n2)c(O)n1-c1ccccc1Cl,-7.0%,0.1,5.3%,2.3,3,26,17%
CCC1(C)Cc2c(sc3nc(SCC(=O)O)[nH]c(=O)c23)CO1 (stereo not drawn),-17%,-0.2,2.0%[38.3 µM],9.4,-4,20,19%
CN(c1ccccc1)S(=O)(=O)c1ccc(C(=O)N2CCN(c3ccccc3F)CC2)cc1,0.1%,-1.8,5.2%,·,·,2,·
COc1ccc(CNS(=O)(=O)c2cc(-c3cc(C)no3)ccc2C)cc1OC,-2.3%,-0.6,-2.1%,-0.6,-4,-6,12%
COc1cc(/C=C/c2ccc3cccc(O)c3n2)cc(Br)c1OC,·,1.1,6.8%,-3.0,-9,1,?
O=C(CN1CCN(c2ccccc2)CC1)Nc1nnc(-c2ccccc2)s1,-5.4%,0.6,7.9%,-1.0,7,9,8%
CC(C)CCn1c(Sc2nc3ccccc3o2)nc2c1c(=O)[nH]c(=O)n2C,1.5%,2.4,-1.7%,7.0,11,-3,-7%
NC(=O)C1c2ccccc2Oc2ccccc21,·,0.8,-0.6%,-6.9,16,-26,5%
CC(C)(C)C1CCc2c(sc(NC(=O)C3c4ccccc4Oc4ccccc43)c2C(N)=O)C1 (stereo not drawn),?,0.4,0.3%,·,·,-15,·
CCOc1ccc(CCNC(=O)COC(=O)c2c(OC)cccc2OC)cc1OCC,-6.3%,-0.6,1.3%,·,-2,19,·
O=C(Nc1ccc(Cl)c([N+](=O)[O-])c1)C(Sc1ccccc1)c1ccccc1 (stereo not drawn),-2.5%,-0.3,15%,4.6,-2,6,7%
COc1ccc(S(=O)(=O)Nc2c(C)cccc2C)cc1-n1cnnn1,·,0.1,0.5%,0.1,-5,8,2%
CN(C)CCCNC(=O)Cc1ccc(Br)cc1,-5.1%,0.0,0.4%,-1.6,2,-3,1%
CC(C)(C)c1ccc(OCC(O)CNC(=O)c2ccccc2C(=O)O)cc1 (stereo not drawn),1.3%,-0.1,-0.3%,·,·,-12,·
COc1cccc(C(=O)N2CCC[C@H]2C(=O)N2CCC[C@H]2C(=O)N[C@@H](C)c2ccccc2)c1,2.4%,-0.8,1.2%,·,·,·,·
CC1CC(C)CN(S(=O)(=O)c2ccc3c(c2)oc(=O)n3CC(=O)N(C)Cc2ccccc2)C1 (stereo not drawn),2.1%,-0.7,7.7%,-6.3,?,2,21%
COc1ccc2ccccc2c1C=NN1CCCCC1,0.8%,0.3,4.8%,·,·,11,·
COC(=O)C(C)(C)ONC(=O)Nc1ccc([N+](=O)[O-])cc1,·,-0.3,-0.9%,0.8,1,-19,19%
CN(C)S(=O)(=O)c1ccc(C(=O)N2CCN(C(=O)C3CCCO3)CC2)cc1 (stereo not drawn),-0.2%,0.5,-0.9%,·,7,-9,·
COCCN1C[C@@H](CO)O[C@@H](n2cnc3c(NC4CC4)ncnc32)C1,-2.6%,0.2,1.0%,·,·,·,·
CCOC(=O)CSc1nc2cc3c(cc2cc1CC)OCCO3,-17%,2.2,-1.0%,3.2,-17,7,?
C=CCN(CC=C)S(=O)(=O)c1ccc(NC(=S)NC(=O)c2ccco2)cc1,1.1%,2.2,-0.6%,3.7,-9,7,-20%
CCN(CC)C(=O)COc1ccc(-c2nnc(N3CCCCC3)c3ccccc23)cc1,-2.0%,1.7,-5.8%,-1.9,8,-4,6%
CSCCC(NC(=O)c1ccc(Cl)cc1)C(=O)NC(C)(C)C (stereo not drawn),1.8%,0.1,14%[38.3 µM],-0.3,?,8,-11%
COc1ccc(C(=O)N2CCC(C(=O)O)CC2)cc1,-1.1%,0.0,0.5%[38.3 µM],1.9,8,-4,9%
CN(C(=O)c1cc2ccccc2cc1O)C1CCCCC1,-1.8%,-0.2,-0.2%,·,?,-8,10%
CC(C)C(OC(=O)c1cccs1)C(=O)NCc1ccco1 (stereo not drawn),0.7%,-0.2,1.0%,4.2,9,-5,-23%
CCCSc1nc2c(c(=O)n1CC)SC(C)C2 (stereo not drawn),-0.8%,1.8,4.1%,3.0,-11,2,9%
O=C(Cc1cn(Cc2cccc(Cl)c2)c2ccccc12)N1CCCCCC1,-23%,2.2,8.2%,9.0,-8,76,-18%
CCOC(=O)CNC(=O)CCCCCC(=O)NCC(=O)OCC,0.8%,0.9,0.7%,4.8,-4,-7,10%
COc1ccc(NC(=O)COC(=O)c2ccc(C)c(S(=O)(=O)N3CCCCC3)c2)cc1,1.4%,1.4,0.7%,·,-2,1,·
COc1ccc(-n2c(SCc3cccnc3)nc3c(c2=O)SCC3)cc1OC,-2.2%,·,0.3%,0.0,-25,·,-27%
O=C(O/N=C\c1ccc(N2CCCCC2)c([N+](=O)[O-])c1)c1ccc(Cl)cc1Cl,?,13,-2.2%,0.4,18,0,12%
CCCCn1nc(C(=O)NNC(=O)c2ccncc2)c2ccccc2c1=O,-1.5%,-0.4,-1.1%,·,10,-1,7%
Cc1cccc(Cn2c(NC3CCCC3)nc3c2c(=O)[nH]c(=O)n3C)c1,-0.4%,-0.8,1.9%,·,·,16,·
CCOc1ccc(CNC(=O)c2cc3cc(S(=O)(=O)N4CCCCC4)ccc3n2C)cc1,?,0.0,2.9%,·,·,-9,·
CC(=O)Nc1nc2nc(-c3ccccc3)cc(-c3ccccc3)n2n1,83%,-0.2,5.8%,0.1,0,-9,4%
COc1c2ccoc2c(OC[C@@H](O)C(C)(C)O)c2oc(=O)ccc12,-3.0%,-0.7,3.4%,0.6,7,5,1%

# Whole records, quoted from the list.
# O=C(O/N=C\c1ccc(N2CCCCC2)c([N+](=O)[O-])c1)c1ccc(Cl)cc1Cl across the screens: ClpP mod: ?; TRPML1 agonist: 13; PINK1 expr mod: -2.2%; Menin-MLL FL inh: 0.4; TRPV1 potentiator: 18; TRPML1 blocker: 0; Sfp inh: 12%
# Cc1cccc(Cn2c(NC3CCCC3)nc3c2c(=O)[nH]c(=O)n3C)c1 across the screens: ClpP mod: -0.4%; TRPML1 agonist: -0.8; PINK1 expr mod: 1.9%; Menin-MLL FL inh: ·; TRPV1 potentiator: ·; TRPML1 blocker: 16; Sfp inh: ·

# The list continues.
molecule,ClpP mod,TRPML1 agonist,PINK1 expr mod,Menin-MLL FL inh,TRPV1 potentiator,TRPML1 blocker,Sfp inh
CCOCCOC(=O)c1ccc(NC(=O)c2cc3ccccc3o2)cc1,·,-0.9,1.0%,·,·,4,·
Cn1cncc1C#Cc1ccc2c(=O)c3ccccc3oc2c1,-16%,0.0,0.3%,·,·,24,·
COc1cc(/C=C(\C#N)c2nc3ccccc3[nH]2)ccc1OCc1cccc(C(F)(F)F)c1,-2.7%,1.9,13%,·,·,2,·
COc1ccc(C(=O)N2CCN=C2SC)cc1,1.0%,0.8,1.9%,-0.7,?,-5,1%
O=C(CCNS(=O)(=O)c1c(Cl)cccc1Cl)N1CCCC1,-0.5%,-0.9,-0.1%,·,-5,-3,·
c1cc(CNCC2CCCO2)ccn1 (stereo not drawn),·,-0.2,-0.9%,0.0,-4,4,10%
COc1cc(C(=O)NNC(=O)c2ccoc2C)cc(OC)c1OC,-2.4%,1.1,0.6%,-0.2,1,1,-3%
COc1ccc(Nc2c3c(nc4ccc(NC(=O)c5ccc(F)cc5)cc24)CCCC3)cc1OC,-2.0%,-0.9,-1.9%,·,·,1,·
Cc1cccc(NC2SC(=O)N(c3ccccc3)C2=O)c1 (stereo not drawn),-1.5%,4.8,-0.3%[38.3 µM],17,?,9,16%
CCC1CCCCN1CCCNC(=O)CC1Oc2ccc(C)cc2NC1=O (stereo not drawn),0.3%,0.9,0.7%,2.5,18,1,-7%
CCCN1CCN(CCCNC(=O)c2cc3c(=O)[nH]c4ccccc4c3s2)CC1,4.3%&4.0%,1.1&1.8,-1.3%&0.6%,3.9,0,3&-2,8%
Cc1cccc(NC(=O)C2CCN(S(=O)(=O)c3ccc4ccccc4c3)CC2)n1,-1.6%,2.4,0.6%,·,0,3,·
COC(=O)Cn1c(CCC(=O)O)ccc1-c1ccccc1,4.3%,0.5,2.8%,?,1,8,3%
CSc1nc2ccccc2n1Cc1cccc(F)c1,-18%,4.4,18%,3.1,?,17,1%
O=C1c2cccc3c(N4CCCCC4)ccc(c23)C(=O)N1c1ccccc1O,1.2%,58*,5.3%,?,0,-9,-17%
Cc1cccc(OCC(=O)NCC(=O)N/N=C/c2cccs2)c1,1.2%,-0.2,-0.3%,-0.9,27,4,-3%
COc1cc(F)ccc1-c1csc(C(O)(c2ccccc2)C(F)(F)F)n1 (stereo not drawn),-4.2%,0.6,-1.2%,·,·,·,·
N#Cc1c(N)nc(SCc2ccccn2)c(C#N)c1-c1cccs1,-8.9%,5.8,-2.6%[38.3 µM],1.9,-1,56,4%
CCOC(=O)c1cccc(NC(=O)CSc2nnc(-c3ccoc3C)n2CC)c1,-1.5%,1.2,0.3%,-2.4,10,-4,6%
COc1ccc([C@H]2C[C@H](n3cc(COC(=O)c4ccccc4)nn3)[C@@H](O)CN2CC2CCCCC2)cc1,-0.6%,-0.8,4.5%,·,·,-8,·
OCCC1CN(Cc2cc3c(cc2Cl)OCO3)CCN1Cc1ccccc1 (stereo not drawn),·,0.2,2.5%,1.7,-15,-2,-6%
COc1ccc(N2C(=O)CSC23C(=O)N(CC(=O)NCc2ccccc2)c2ccccc23)cc1 (stereo not drawn),-0.7%,1.7,-3.7%,·,·,11,·
